HSV replic up: HSV replication enhancement; HSV replication augmentation in cells, fold increase; maximum fold increase; 220,000 compounds, 0.005% hits; AID 1956;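 active = peak rise of 1.5-fold or more in the series; tested in PC3 cells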;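 also: first round at 10 µM; read as green reporter fluorescence; hits show the peak of a series up to 25 µM; 1 = signal of infected wells without compound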
GALR2 ag: GALR2 (human) receptor agonism; O43603; GALR2-expressing cells, agonist activation read-out; activation, %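 (tested at 5 µM)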; 140,000 compounds, 0.48% hits;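 active = above mean plus 3 SD of all compounds, about 5% in these data, not always enough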;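 also: 0% = vehicle buffer wells and 100% = reference agonist at full effect; tested in CHO reporter cells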
Target sequence (O43603 whole entry, looked up): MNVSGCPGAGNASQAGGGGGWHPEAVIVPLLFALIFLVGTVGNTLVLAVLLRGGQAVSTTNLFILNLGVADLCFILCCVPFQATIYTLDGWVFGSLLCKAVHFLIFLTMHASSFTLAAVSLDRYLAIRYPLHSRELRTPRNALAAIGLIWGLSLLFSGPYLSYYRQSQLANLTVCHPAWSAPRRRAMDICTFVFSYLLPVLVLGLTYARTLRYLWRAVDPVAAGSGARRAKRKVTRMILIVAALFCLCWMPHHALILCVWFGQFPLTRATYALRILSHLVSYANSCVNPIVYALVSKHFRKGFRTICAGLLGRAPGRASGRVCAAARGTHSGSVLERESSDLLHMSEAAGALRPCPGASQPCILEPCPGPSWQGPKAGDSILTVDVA
PKD1 kinase inh: PKD1 (human) kinase inhibition | Q15139 | AID 797 | 200,000 compounds, 0.056% hits | PKD1 kinase fluorescence polarization assay | inhibition, %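 (about 10 µM by stock and volumes)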;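 active = inhibition of 50% or more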;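 also: controls were vehicle for no effect and a reference inhibitor for full effect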
RGS16-Gao: regulators of human RGS16-Galphao interaction; bead-based flow cytometry RGS16-Galphao binding, fluorescence; actives lie on both sides; binding response (% of control), % at 10 µM; 220,000 compounds, 0.38% hits; AID 1441;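 active = below 25% or above 175%, edge rows of some plates excepted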;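 also: Galphao activated by GDP with aluminum fluoride before binding; 100% = wells without compound and 0% = beads without RGS; some results beyond the cut were filed as inactive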
Target sequence (O15492 whole entry, looked up): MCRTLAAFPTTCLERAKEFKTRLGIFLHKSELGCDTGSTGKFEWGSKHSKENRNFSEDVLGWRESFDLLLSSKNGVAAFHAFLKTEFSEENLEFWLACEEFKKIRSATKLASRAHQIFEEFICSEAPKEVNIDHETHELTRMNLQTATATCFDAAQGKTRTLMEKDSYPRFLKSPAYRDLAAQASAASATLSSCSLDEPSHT
Target sequence (P09471 whole entry, looked up): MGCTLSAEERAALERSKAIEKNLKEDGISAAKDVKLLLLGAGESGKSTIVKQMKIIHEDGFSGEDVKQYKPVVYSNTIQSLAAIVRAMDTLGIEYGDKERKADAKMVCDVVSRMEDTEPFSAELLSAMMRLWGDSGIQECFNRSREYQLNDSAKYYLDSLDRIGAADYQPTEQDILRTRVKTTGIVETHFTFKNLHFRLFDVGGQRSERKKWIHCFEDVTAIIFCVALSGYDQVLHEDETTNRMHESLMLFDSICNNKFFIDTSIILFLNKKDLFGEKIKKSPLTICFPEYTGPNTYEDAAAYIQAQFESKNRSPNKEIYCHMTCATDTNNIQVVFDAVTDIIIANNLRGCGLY
Insulin prom inh: TRM-6 insulin promoter activity inhibition. AID 1273. 130,000 compounds, 0.9% hits. TRM-6 cells (human fetal islet line), insulin promoter-eGFP reporter, imaging; reporter expression induced with tamoxifen. inhibition, % at 2 µM;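 active = inhibition above the mean plus 3 SD, with well images judged a real hit on visual review, cut at about 60% in these data, passing the limit was not always enough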
Insulin prom inh cell count: also measured in Insulin prom inh; calls as there; normalized cell count, %; measured here: cell count, toxicity; reference of the scale not given here;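 cells exposed to compound for 48 h; stained nuclei by imaging scaled within each plate; lower means fewer cells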
HSV replic up primary fold: second read-out of HSV replic up, no call of its own (marks repeat the call); fold increase; compound at 10 µM; measured here: primary screen fold increase 10 uM; tested in PC3 cells;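 GFP signal in the first replicate; 1 = infected wells without compound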
* marks the source's active call; other numbers are inactive results; i = inactive; . = no result given.

SMILES,HSV replic up,HSV replic up primary fold,GALR2 ag,PKD1 kinase inh,RGS16-Gao,Insulin prom inh,Insulin prom inh cell count
COc1ccc(NC(=O)N2CCC(c3nc4ccccc4[nH]3)CC2)cc1,i,1,.,4,98,2,45
Cc1cccc(Sc2ccc([N+](=O)[O-])cc2[N+](=O)[O-])n1,i,0.57,-0.6,-12,109,-49,76
O=C(NCCc1c[nH]c2ccc(Cl)cc12)c1cccnc1,i,0.91,-1.4,1,103,-69,101
Cc1ccccc1-c1nn(-c2ccc(F)cc2F)cc1CNC1CC1,i,1.1,.,-1,92,.,.
CCCS(=O)(=O)c1cn2cccc(N)c2c1S(=O)(=O)CCC,i,1.1,-1.2,-9,101,-69,79
c1ccc(Cn2c[n+](Cc3ccccc3)cn2)cc1,i,0.76,.,.,111,.,.
CCOC(=O)c1c(C)[nH]c(C(=O)N2CCCC(C(=O)c3cccc(OC)c3)C2)c1C (centres undefined),i,1.2,.,-5,96,.,.
Cc1ccc(C)c2[nH]c(=O)c(CN(CC3CCCO3)C(=S)NCc3ccco3)cc12 (centres undefined),i,0.9,.,.,98,.,.
CC(=O)NCCC(=O)Nc1nc(-c2cccs2)c(-c2cccs2)s1,i,1.4,-1.6,-10,106,.,.
COc1ccc2c(c1)C=CC1(O2)N(CCO)c2ccccc2C1(C)C (centres undefined),i,1,-1.2,0,102,-90,108
Cc1c(-c2nnc(SCC(=O)O)n2-c2ccccc2Br)nnn1-c1ccccc1,i,1,0.4,3,101,0,79
O=C(/C=C/Nc1ccc(F)c(Cl)c1)c1ccco1,i,1,0.1,-5,106,-15,45
CCCn1c(SCC(=O)N2c3ccccc3CCc3ccccc32)nc2c1c(=O)n(C)c(=O)n2C,i,0.99,-1.9,3,99,.,.
C=CCOc1ccc(Br)cc1CNCCCN1CCOCC1,i,0.86,-0.6,-11,110,-10,103
CC(=O)Nc1ccc(NC(=O)C(C)OC(=O)C2(c3ccc(F)cc3)CCCC2)cc1 (centres undefined),i,0.96,.,-3,98,.,.
COc1ccccc1-c1cc(C(=O)Nc2c(F)cc(F)cc2Br)no1,i,1,0.4,-16,98,.,.
COc1ccc(OCCCC(=O)Nc2nccs2)cc1,i,1.1,.,.,103,.,.
Cc1ccc(C2C3=C(CC(C)(C)CC3=O)OC3=C2C(=O)CC(C)(C)C3)cc1,i,0.76,.,1,102,.,.
Nc1c(C(=O)CCC(=O)O)oc2ccc(Cl)cc12,i,1.1,-1.1,-3,104,.,.
CCOc1ccc(NC(=O)COC(=O)C2(C)CC2(Cl)Cl)c([N+](=O)[O-])c1 (centres undefined),i,1.1,.,-7,99,.,.

2 entries picked at random from the list so far, as already listed:
SMILES,HSV replic up,HSV replic up primary fold,GALR2 ag,PKD1 kinase inh,RGS16-Gao,Insulin prom inh,Insulin prom inh cell count
CCOC(=O)c1c(C)[nH]c(C(=O)N2CCCC(C(=O)c3cccc(OC)c3)C2)c1C (centres undefined),i,1.2,.,-5,96,.,.
CCCS(=O)(=O)c1cn2cccc(N)c2c1S(=O)(=O)CCC,i,1.1,-1.2,-9,101,-69,79

The listing continues.
SMILES,HSV replic up,HSV replic up primary fold,GALR2 ag,PKD1 kinase inh,RGS16-Gao,Insulin prom inh,Insulin prom inh cell count
C/C(=N\NC(=S)NCc1ccccc1)c1ccc2ccccc2c1,i,0.72,-0.8,-2,104,-50,160
CCOc1cc(NC(=S)NCCCOC)c(OCC)cc1NC(=O)c1ccco1,i,0.93,-0.6,-2,109,-28,114
CC1=C(C(=O)OCc2ccccc2)C(c2ccccc2-c2ccccc2)NC(=O)N1CCCCCC(=O)O (centres undefined),i,0.77,-1.2,-8,102,-100,113
COc1cc([N+](=O)[O-])cc2sc(NC(=O)C3CC3)nc12,i,0.99,.,-3,108,0,221
COc1ccccc1Nc1nc(N)nc(CN2CCC(C)CC2)n1,i,1,.,4,96,8,85
COc1ccc(C(N)=O)cc1N,i,0.76,0.1,-7,103,14,132
O=C(CSc1nnc(CNC(=O)C23CC4CC(CC(C4)C2)C3)n1-c1ccccc1)Nc1ccccc1,i,0.82,-0.7,-1,94,-26,135
Cc1ccc(C(=O)NCCNC(=O)c2ccccc2)cc1,i,0.86,.,4,98,.,.
Cc1cc(N2CCN(C)CC2)nc2ccc(NC(=S)N3CCN(c4ccc(Cl)cc4)CC3)cc12,i,0.62,.,-2,100,-164,27
Cc1cccc(NNC(=O)C2CCC2)c1,i,1,.,.,113,.,.
Cc1nn(CC(=O)Nc2ccccn2)c(C)c1[N+](=O)[O-],i,0.93,-3.5,-2,76,.,.
CC1CN(C(=O)N2CCCCC2)CCN1C(=O)N1CCCCC1 (centres undefined),i,0.94,.,-2,98,-85,131
CC(C)(C)N/N=C/c1cc(Cl)cc([N+](=O)[O-])c1O,i,1,-1.0,-8,98,8,147
N/C(=N\OC(=O)Cc1ccccc1[N+](=O)[O-])c1cccnc1,i,0.95,.,2,99,31,141
Cc1ccc(C(=O)Nc2ccc(S(=O)(=O)N3CCc4ccccc4C3)cc2)o1,i,0.97,0.2,4,101,-14,99
CCN(CC)c1nc2n(c(=O)n1)CCN2CC,i,0.96,-1.4,0,103,48,80
COc1ccccc1N1CCN(C(=O)/C=C/c2ccccc2)CC1,i,0.95,-1.7,-10,107,69,102
CCOC(=O)Cn1nc(C)n(-c2ccc(Br)cc2)c1=O,i,1,.,-5,106,.,.
Cc1ccc(CCNC(=O)C23CN(Cc4ccccc4)CC2C(c2cccc([N+](=O)[O-])c2)=NO3)cc1 (centres undefined),.,.,-1.0,-4,184,-16,198
CC(C)OCCCNC(=O)NC(=O)c1ccc(Cl)cc1,i,0.97,.,-2,104,.,.

Laid out differently: 2 of the compounds above
Under each structure – HSV replic up, HSV replic up primary fold, GALR2 ag, PKD1 kinase inh, RGS16-Gao, Insulin prom inh, Insulin prom inh cell count
CC1=C(C(=O)OCc2ccccc2)C(c2ccccc2-c2ccccc2)NC(=O)N1CCCCCC(=O)O (centres undefined)
→ i, 0.77, -1.2, -8, 102, -100, 113
COc1cc([N+](=O)[O-])cc2sc(NC(=O)C3CC3)nc12
→ i, 0.99, ., -3, 108, 0, 221

(continued)
SMILES,HSV replic up,HSV replic up primary fold,GALR2 ag,PKD1 kinase inh,RGS16-Gao,Insulin prom inh,Insulin prom inh cell count
Cn1c(CN2CCOCC2)nnc1SCc1ccccc1,i,1,-3.2,1,102,.,.
O=C(Nc1ncn[nH]1)c1ccc(Cl)cc1Cl,i,0.96,.,16,115,18,108
CCOC(=O)C1CCN(S(=O)(=O)c2ccc(OC)c(OC)c2)CC1,i,0.86,-1.4,0,106,-13,101
O=C(CSCc1nc2ccccc2[nH]1)Nc1ccc2ccccc2c1,i,0.91,-1.3,4,104,-79,52
Cc1ccc(CNCC(=O)Nc2ccc(N3CCOCC3)cc2)cc1,i,1.2,.,.,98,.,.
CCOc1ccc2nc(NC(=O)c3ccoc3C)sc2c1,i,0.93,-1.5,-6,103,-8,108
N#CCSc1nc2[nH]ncc2c(=O)n1-c1ccccc1Br,i,0.8,-6.1,-4,101,.,.
CCc1cccc(CC)c1NC(=S)NCc1ccc2[nH]c(C)cc2c1,.,.,-1.4,-7,105,46,149
O=C(/C=C/c1ccccc1Cl)c1ccc[nH]1,i,0.62,0.0,9,122,50,79
CC1=CC=CC2=NC(=O)CC(C)(C(=O)O)N12 (centres undefined),i,1,.,4,99,.,.
N=c1c(C(=O)NCc2ccc3c(c2)OCO3)cc2c(=O)n3ccccc3nc2n1Cc1cccnc1,i,0.7,0.2,-7,97,-12,136
CN(C)C(CNc1ccc([N+](=O)[O-])cc1C#N)c1ccccc1 (centres undefined),i,1.1,.,0,104,.,.
O=C(OCC(=O)N1CCN(C(=O)c2ccco2)CC1)c1cn(-c2ccccc2)nc1-c1ccccc1,i,0.98,-4.1,-3,101,-126,130
COc1ccc(C2C(=O)N(C3CCCCC3)CC(=O)N2C2CCCC2)cc1 (centres undefined),i,0.7,-1.2,-3,97,-39,129
CCCCC(=O)N/N=C(\C)c1cccc(NC(=O)C2CC2)c1,i,0.91,-0.8,0,99,-72,102
O=C(c1n[nH]c(=O)c2ccccc12)N1CCN(C2c3ccccc3-c3ccccc32)CC1,i,0.87,-3.3,-5,104,-13,117
Cc1ccc(NC(=O)CCc2nc3ccccc3s2)c(O)c1,i,0.98,.,14,97,29,96
COc1ccc(C(=O)NCCSc2ccccc2)cc1,i,1,-0.1,1,99,-70,67
O=C(O)C1CC=CCC1C(=O)Nc1cccc([N+](=O)[O-])c1 (centres undefined),i,0.96,.,-6,103,.,.
Cn1nnnc1SCC(=O)Nc1ccccn1,i,0.92,-2.5,-3,99,-93,78

SMILES,HSV replic up,HSV replic up primary fold,GALR2 ag,PKD1 kinase inh,RGS16-Gao,Insulin prom inh,Insulin prom inh cell count
Cc1ccc2nsnc2c1NC(=O)c1ccc2c(c1)OCCO2,i,1,-4.2,-6,101,-1,134
O=S(=O)(N1CCCCC1)N1CCN(S(=O)(=O)N2CCCCC2)CC1,i,0.82,-1.7,-1,104,0,125
Cc1cc(C)nc(Nc2nc3ccccc3o2)n1,i,0.94,.,.,106,.,.
C(=N\N1CCN(c2ccccn2)CC1)/c1cccc2ccccc12,i,1.1,.,.,105,.,.
O=S(=O)(c1ccc(F)c(Cl)c1)N1CCCC1,i,0.84,-4.8,-3,101,61,41
Cc1ncoc1C(=O)Nc1ccc(Oc2ccccc2)cc1,i,0.97,-0.6,-6,95,-43,92
COc1ccc2nc3oc(C(=O)N4CCCCC4)cc3cc2c1,i,0.73,0.5,1,104,16,210
Cc1ccc(C(=O)NC(=S)NNC(=O)CC#N)cc1,i,1,.,-5,101,.,.
COc1cccc(/C=C2\SC(=S)N(N3CCOCC3)C2=O)c1OC,i,0.9,-1.3,-11,107,.,.
COc1ccc(OC)c(CN2CCC(C(=O)N3CCOCC3)CC2)c1,.,.,-1.7,-7,85,50,178
CCC(C)c1ccc(NC(=S)NCc2cccs2)cc1 (centres undefined),i,0.89,-1.9,-9,98,0,191
Cc1ccc(CC(CC(=O)O)C(=O)NC2CCCCC2)cc1 (centres undefined),i,1.1,-1.9,-11,103,-31,75
C/C(=C\CCC1(C)C2CC3C(C2)C31C)C(=O)O (centres undefined),i,0.77,.,.,89,.,.
CCOC(=O)c1cc2c(nc1NC(=S)NCc1ccccc1)CCCC2,i,0.87,-0.7,-9,112,.,.
COc1ccc2[nH]c3c(c2c1)CCn1c-3nc2sc(C(=O)Nc3ccccc3)c(C)c2c1=O,.,.,2.0,-10,100,.,.
O=C(NCc1ccco1)C1CC(=O)N(c2ccc(F)cc2)C1 (centres undefined),i,1.1,-1.2,1,112,57,137
Cc1sc2ncn3ncnc3c2c1C,i,0.93,-0.8,2,93,-26,79
CCN1C(=O)/C(=C2/C=CC=CN2C)OC1=S,i,1.1,1.2,6,93,.,.
Cc1cs/c(=N/C(=S)Nc2ccccc2)n1C,i,0.97,-0.3,0,102,-29,97
Cc1ccc(S(=O)(=O)N2CCN(S(=O)(=O)N3CCOCC3)CC2)cc1,i,0.74,-1.7,-9,102,-6,213
O=C(c1ccc(S(=O)(=O)Nc2ccc(F)cc2)cc1)N1CCN(c2ccccn2)CC1,i,0.96,.,-8,110,-22,115
CCOC(=O)c1cnc2ccc(C(=O)OC)cc2c1Nc1cccc(C(=O)O)c1,i,1,.,3,100,.,.

Source: PubChem

Outcome played no part in choosing rows; overall some 1.3% were active at least once.
